From PubChem
HNF4A DNA FP: change in binding of human HNF4 alpha to DNA | HNF4a-FITC DNA binding, fluorescence polarization, 1 h | AID 1224865 | actives 0.3% (n = 360,000) | activity change, % at 10 µM; in the data active = activity change above about 30%, passing the limit was not always enough;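 also: controls were the assay level and a saturating level of protein; the project sought stronger binding though the title names inhibitors; some compounds called inactive have numbers as strong as hits; positive values seem to mean higher polarization but the record does not say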
FGF22 binding: binders of recombinant human FGF22 by thermal shift; Q9HCT0; AID 651658; actives 1.5% (n = 340,000); calls only at 9.99 µM; SYPRO orange fluorescence; percent of sucrose octasulfate shift, DMSO zero;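 active = melting point raised past a set limit in the mean and every replicate; inconclusive = no clear call; three in four hits are not shown here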
Target sequence (Q9HCT0 whole entry, looked up): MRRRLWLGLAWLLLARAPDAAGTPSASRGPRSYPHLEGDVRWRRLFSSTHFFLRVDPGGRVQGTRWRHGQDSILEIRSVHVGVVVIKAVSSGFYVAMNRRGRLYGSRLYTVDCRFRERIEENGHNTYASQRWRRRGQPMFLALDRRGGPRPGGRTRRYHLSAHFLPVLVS
ALR H2O2 inh: blocks human ALR sulfhydryl oxidase activity; P55789; purified ALR, DTT oxidation, H2O2 HRP-luminol luminescence; inhibition, % (test concentration not listed); actives 3.8% (n = 290,000); AID 485317;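 active = mean and each replicate at 75% or more; inconclusive = only one of the two met; inactive = neither met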;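 also: stock transfer was 7.5 nL into about 7.5 µL; 0% = neutral wells and 100% = wells with inactivated enzyme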
Target sequence (P55789 whole entry, looked up): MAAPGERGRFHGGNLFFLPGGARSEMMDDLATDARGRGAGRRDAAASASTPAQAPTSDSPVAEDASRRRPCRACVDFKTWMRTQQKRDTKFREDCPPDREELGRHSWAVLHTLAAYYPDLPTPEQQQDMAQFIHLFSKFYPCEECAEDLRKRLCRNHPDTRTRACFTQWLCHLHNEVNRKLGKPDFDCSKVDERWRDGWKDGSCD
AF4-AF9 inh: blocks AF4 peptide binding to human AF9; AlphaScreen, biotin-AF4 peptide binding to FLAG-AF9; inhibition, % at 10 µM; actives 0.47% (n = 350,000); AID 651704;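 active = every replicate reaching a set inhibition limit, whatever the replicate mean, cut at about 25% in these data; inconclusive = mean inhibition reaches that limit but some replicates miss it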;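 also: 0% = plate neutral control median and 100% = total signal loss; the record names both 10 and 1 µM as test concentration; the first replicate is given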
Target sequence (P42568 whole entry, looked up): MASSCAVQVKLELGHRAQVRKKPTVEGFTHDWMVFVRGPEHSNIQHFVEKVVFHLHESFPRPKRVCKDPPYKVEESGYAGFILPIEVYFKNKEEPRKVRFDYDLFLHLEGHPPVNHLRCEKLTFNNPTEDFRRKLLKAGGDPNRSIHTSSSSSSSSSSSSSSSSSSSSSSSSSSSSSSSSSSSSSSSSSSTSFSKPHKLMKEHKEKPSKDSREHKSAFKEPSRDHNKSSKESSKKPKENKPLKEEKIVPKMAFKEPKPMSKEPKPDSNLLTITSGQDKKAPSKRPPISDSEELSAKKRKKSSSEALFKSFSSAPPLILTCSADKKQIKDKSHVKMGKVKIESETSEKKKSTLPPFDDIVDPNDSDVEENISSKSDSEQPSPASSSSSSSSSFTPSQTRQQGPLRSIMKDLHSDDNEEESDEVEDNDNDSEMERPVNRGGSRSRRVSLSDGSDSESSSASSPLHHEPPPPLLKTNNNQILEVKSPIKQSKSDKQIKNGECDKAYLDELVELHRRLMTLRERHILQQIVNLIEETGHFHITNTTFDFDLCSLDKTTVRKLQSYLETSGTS
Vif TR-FRET: HIV-1 Vif–A3G interaction blockers – biochemical, TR-FRET, GST-Vif 1-94, biotin-A3G peptide, dose response retest, primary screen (AID 1117319). TR-FRET GST-Vif / biotin-A3G peptide binding; higher % means a stronger effect; test concentration not given here; strong numbers were not always called active. inhibition, %; hits with a dose series show IC50 in µM. actives 0.57% (n = 260,000);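 active = above the screen mean plus three standard deviations and confirmed in dose response; inconclusive = results disagree or hit not tested in dose response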;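 also: Vif residues 1-94 fused to GST binding biotinylated APOBEC3G peptide 110-148; 0% = full assay without inhibitor and 100% = GST in place of GST-Vif; retest series ran down from 100 µM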
E coli growth: E. coli growth inhibition | Escherichia coli growth, OD600, 23 h; hits give low values | OD600 absorbance (test concentration not listed) | actives 0.21% (n = 330,000) | AID 1053175;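 active = OD600 absorbance below the run mean of sample wells minus 3.6 SD, in any replicate, cut at about 0.56 in these data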;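 also: stock transfer was 300 nL into about 60 µL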
Ecoli rRNA inh: inhibits bacterial ribosomal RNA function over humanized ribosomes | AID 720706 | E. coli WT GFP vs humanized-ribosome RFP mutants, fluorescence, 24 h; hits give low values; DMSO median 0, no signal -100 | GFP signal change (wild-type ribosome), % (no concentration beside the values) | actives 1.6% (n = 350,000);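 active = significant combined selectivity score with lowered wild-type GFP, culture density cut under 30%, mutant RFP and density less affected; inactive = any of these conditions unmet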; also: one replicate is shown; some compounds called inactive have numbers as strong as hits
Ecoli rRNA inh OD600: also measured in Ecoli rRNA inh; calls as there; OD600 change, %; measured here: OD600 growth;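 optical density of the mix in the first replicate; 0 = DMSO median and -100 = no signal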
Ecoli rRNA inh RFP: further read-out of Ecoli rRNA inh, marked with its call; RFP signal change, %; measured here: RFP humanized mutant strains;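 first replicate; 0 = DMSO median and -100 = no signal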
Numbers without * were called inactive; i = inactive; ? = inconclusive; nt = no result given. Not all compounds are listed. The share of hits here may be higher or lower than overall.

Results follow in this order: HNF4A DNA FP, FGF22 binding, ALR H2O2 inh, AF4-AF9 inh, Vif TR-FRET, E coli growth, Ecoli rRNA inh, Ecoli rRNA inh OD600, Ecoli rRNA inh RFP
CCc1cc(CNC(=O)c2cccc(OC3CCN(S(C)(=O)=O)CC3)c2)on1
→ 2.5, i, 2, 2.0, nt, 0.69, 8, 7, 1.1
Cc1noc(C)c1NC(=O)N(C)C[C@H]1OCCCC[C@@H](C)Oc2ccc(NC(=O)C3CCCCC3)cc2C(=O)N([C@H](C)CO)C[C@H]1C
→ nt, i, nt, 0.5, nt, nt, 2, 3, 0.9
C[C@@H]1CN([C@@H](C)CO)C(=O)c2cccc(NC(=O)C3CCOCC3)c2O[C@@H]1CN(C)C(=O)NC1CCCCC1
→ nt, i, nt, -3.1, nt, nt, 1, 4, 1.8
COc1cccc(CN2CCNC(=O)C2CC(=O)N2CCCCO2)c1OC (stereo not drawn)
→ -9.8, i, -14, -2.0, 16%, 0.7, 11, -1, -1.0
O=C(C[C@@H]1C[C@@H]2c3cc(NC(=O)C4CCOCC4)ccc3O[C@@H]2[C@@H](CO)O1)NCc1cccc(F)c1
→ nt, i, nt, -3.2, nt, nt, 0, 4, -2.7
CC(C)NC(=O)Nc1ccc2c(c1)C(=O)N([C@@H](C)CO)C[C@H](C)[C@@H](CN(C)C(=O)NC1CCCCC1)O2
→ nt, i, nt, -24, nt, nt, 5, 3, 1.4
Cn1c(NC2CCCCC2)c(N=O)c(=O)n(C)c1=O
→ -0.4, i, -7, -1.7, nt, 0.67, 16, 12, 1.0
CS(=O)(=O)c1ccccc1C(=O)N1CCN(Cc2ccccc2)CC1
→ -2.6, i, -8, -0.8, ?, 0.64, -14, -30, -5.7
O=C(Cc1ccc(Cl)c(Cl)c1)NC1CCCCCC1
→ 2.0, i, -2, -0.7, nt, 0.66, 1, -5, 3.1
Cc1ccc(OCC(=O)Nc2ccc(C(=O)O)cc2NC(=O)COc2ccc(C)c(C)c2)cc1C
→ -1.2, i, nt, -0.4, nt, 0.7, 10, 10, -0.2
CCOC(=O)CCNC(=O)Nc1cc2nc(C)n(Cc3cccc(Cl)c3)c2nc1C
→ 4.4, i, -28, -3.4, -7%, 0.72, 5, 12, -2.5
N#Cc1c(N2C(=O)c3ccc(C(=O)O)cc3C2=O)sc2c1CCCC2
→ 2.2, i, 5, 1.1, nt, 0.67, 18, 17, 1.9
Nc1ccc(C(=O)N2CCN(S(=O)(=O)c3ccc4c(c3)OCCCO4)CC2)cc1[N+](=O)[O-]
→ 2.6, i, -22, 2.8, 1%, 0.64, nt, nt, nt
COc1ccc(-c2ccccc2[C@H]2[C@@H](C#N)N(C(=O)C3CCC3)[C@H]2CO)cc1
→ nt, i, nt, 0.3, nt, nt, 3, 1, 3.6
CCOC(=O)Nc1cccc2c1-c1ccc([N+](=O)[O-])cc1C2=O
→ 6.9, i, nt, 1.7, -19%, nt, -5, 9, 3.4
O=S(=O)(NCCc1ccccc1)c1cccc2cccnc12
→ -2.5, i, -5, -1.4, -3%, 0.66, -25*, -20*, -1.4*
Cc1ccc(NC(=O)c2ccccc2Cl)c(Cl)c1
→ 1.1, nt, -8, nt, 28%, 0.73, nt, nt, nt
COCC(=O)N(C)C[C@H]1Oc2cc(C#C[C@H](C)O)ccc2S(=O)(=O)N([C@H](C)CO)C[C@@H]1C
→ nt, i, nt, -2.0, nt, nt, 7, 3, -1.6
CN(C(=O)COC(=O)c1c2c(nc3ccccc13)CCCC2)c1c(N)n(Cc2ccccc2)c(=O)[nH]c1=O
→ 2.0, i, -10, -1.1, 7%, 0.68, -9, -12, 1.7
CC(C)(C)NC(=O)c1cccc2c1-c1ccccc1C2=O
→ 1.3, i, 0, -0.2, -6%, 0.62, 9, 13, 0.8
O=C(O)c1ccc(CNC(=O)C2CCCN2C(=O)OCc2ccccc2)cc1 (stereo not drawn)
→ -3.4, i, -25, -0.1, 0%, 0.68, 17, 18, 6.4
COc1ccc(S(=O)(=O)N2CC[C@H]3[C@H](CO)Nc4ccc(-c5cccc(C#N)c5)cc4[C@H]32)cc1
→ nt, i, nt, -2.3, nt, nt, -11, -1, 2.5
COc1ccc(C)cc1NS(=O)(=O)c1cn(C)c(=O)n(C)c1=O
→ -1.0, i, -1, -1.4, 17%, 0.78, -3, 3, 0.0
Cn1c2c(c(=O)n(C)c1=O)NC1(N2)C(=O)Nc2ccccc21 (stereo not drawn)
→ -1.6, i, -2, 2.8, -3%, 0.67, 7, 13, -3.2
Cc1ccccc1S(=O)(=O)Cc1ccc(C(=O)N2CC(C)CC(C)C2)o1 (stereo not drawn)
→ 5.4, i, -164, -0.9, 0%, 0.71, -4, -16, -2.1
CNC(=O)[C@@]1(Cc2ccccc2)C=C[C@@H](C)N1C(=O)OC
→ -0.4, i, 1, -0.3, nt, nt, 7, 12, -1.6
CC1CC(C)(C)CC2(C1)NC(=O)N(CC(=O)Nc1cc(C(F)(F)F)ccc1N1CCCCC1)C2=O (stereo not drawn)
→ 4.7, i, nt, 7.4, nt, nt, nt, nt, nt
CCCCN(CC)C(=O)c1ccc(Cl)cc1
→ -2.7, i, -2, -5.0, -3%, 0.69, -6, -1, -1.5
COc1cc(NC(=O)CNc2cccc(S(=O)(=O)N3CCOCC3)c2)cc(OC)c1
→ -1.4, i, nt, -0.1, 3%, 0.66, 0, 0, -1.5
Cc1ccc(-c2nc(C(=O)NCC3CCCO3)cc3c2[nH]c2ccccc23)cc1 (stereo not drawn)
→ 2.5, i, -7, -2.9, nt, 0.72, -2, -16, -18
Cc1c(C)n(C(=O)CN2CCC(C(N)=O)CC2)c2ccccc12
→ 1.7, nt, 1, nt, -5%, 0.7, nt, nt, nt
CN(C)C(=C(C#N)C#N)N1CCN(c2ccc(Cl)c(Cl)c2)CC1
→ -0.5, nt, nt, nt, -4%, 0.65, nt, nt, nt
O=C(Nc1ccccc1)c1cccnc1NCCc1ccccc1
→ -1.3, i, -4, 2.0, ?, 0.7, nt, nt, nt
COc1cccc(CN(c2ccc3c(c2)CCC3)S(=O)(=O)c2ccc(-n3cnnn3)c(OC)c2)c1
→ -3.9, nt, -27, nt, 12%, 0.73, nt, nt, nt
O=C(O)c1ccc([N+](=O)[O-])c(CS(=O)(=O)c2ccc(Cl)cc2)c1
→ 2.1, i, -6, 0.3, 4%, 0.7, 2, 11, 5.1
CC1(C(=O)NS(=O)(=O)c2ccccc2)CCN1C(=O)CC(c1ccccc1)c1ccccc1 (stereo not drawn)
→ -1.3, i, nt, 1.0, nt, nt, 11, 20, -1.6
Cc1ccccc1C(=O)NC(CC(C)C)C(=O)Nc1cccc(S(=O)(=O)N(C)C)c1 (stereo not drawn)
→ -0.8, i, -1, 0.7, 25%, 0.74, 19, 15, 2.5
O=C(CN1CCN(C(=O)C2CCCO2)CC1)Nc1cc(C(F)(F)F)ccc1Cl (stereo not drawn)
→ 1.4, i, -4, -0.1, nt, 0.65, 2, -3, -2.1
O=[N+]([O-])c1cccnc1NCCc1ccccc1
→ 0.0, i, -6, 1.1, -12%, 0.69, 17, 9, 1.2
Cc1ccc(OCCNC(=O)c2ccccc2F)cc1
→ 3.6, i, -1, 0.5, -5%, 0.67, 10, 5, -5.4
Cc1noc(C)c1NC(=O)NCC[C@H]1CC[C@H](NC(=O)c2ccncc2)[C@H](CO)O1
→ nt, i, nt, -0.5, nt, nt, -1, 4, -2.2
O=C(O)C1(NS(=O)(=O)c2ccc(Cl)cc2)CCCCC1
→ 1.5, nt, -1, nt, 1%, 0.68, nt, nt, nt
COc1ccc2c(c1)C(=O)N(c1ccccc1OC)C(=O)C2
→ 0.2, i, -7, 9.8, 8%, 0.64, 8, 8, -4.1
COc1ccc(-c2cc(C(F)(F)F)n3nc(C(=O)NCc4ccco4)cc3n2)cc1
→ 4.6, nt, 0, nt, 1%, 0.68, nt, nt, nt
Cc1nc2c(c(=O)c3ccccc3n2C)c(=O)n1C1CCCCCC1
→ 3.8, i, -12, -3.0, -58%, 0.63, nt, nt, nt
COC(=O)Cc1ccc(NC(=S)NCc2ccco2)cc1
→ 9.1, i, -1, -0.7, -3%, 0.64, 18, 13, 3.0
CC1=C(C(=O)N2CCOCC2)CC(CC(=O)NCCCN(C)C)C(=O)N1CCC1=CCCCC1 (stereo not drawn)
→ -4.4, i, nt, -4.0, -1%, nt, 12, 10, -0.2
Cc1[nH]c(C)c(S(=O)(=O)N2CCN(c3ccccc3)CC2)c1C(=O)N1CCCCC1
→ -0.6, i, ?, 0.3, -8%, 0.66, -3, 6, 1.4
O=P(c1ccccc1)(c1ccccc1)C(O)c1ccc(Br)cc1 (stereo not drawn)
→ -1.8, i, 1, -4.2, nt, 0.71, -2, -8, 0.5
COc1cc(CNCCc2ccccc2)ccc1OCC(=O)NC(C)(C)C
→ 0.2, nt, 2, nt, 12%, 0.71, nt, nt, nt

The list goes on:
Results follow in this order: HNF4A DNA FP, FGF22 binding, ALR H2O2 inh, AF4-AF9 inh, Vif TR-FRET, E coli growth, Ecoli rRNA inh, Ecoli rRNA inh OD600, Ecoli rRNA inh RFP
O=C(CSc1nccc(=O)[nH]1)NCc1ccc2c(c1)OCO2
→ 2.7, i, -6, -3.0, 4%, 0.71, 3, 3, 1.7
C/C=C/c1ccc2c(c1)O[C@@H](CN(C)C(C)=O)[C@H](C)CN([C@@H](C)CO)S2(=O)=O
→ nt, i, nt, -3.4, nt, nt, 0, 6, -1.9
COc1ccc(N(CC(=O)Nc2ccc(C)cc2C)S(=O)(=O)c2ccccc2[N+](=O)[O-])c(OC)c1
→ -0.6, i, -3, 3.2, 2%, 0.76, -14, -12, -2.4
Cc1ccccc1-c1ccc([C@@H]2[C@@H](CO)N3C(=O)CN(C(=O)c4ccncc4)C[C@@H]23)cc1
→ nt, i, nt, -0.1, nt, nt, 3, 14, -2.7
CC(CC(=O)NC(C)c1ccc2c(c1)OCCO2)c1ccccc1 (stereo not drawn)
→ 2.6, nt, -1, nt, -5%, 0.7, nt, nt, nt
COc1ccc(C2C(C(C)=O)=C(O)C(=O)N2c2ccc(O)cc2)cc1 (stereo not drawn)
→ -4.0, i, 88*, -7.1, nt, 0.69, 9, 8, -0.2
CC(C)(C)OC(=O)NCCCC[C@H](NC(=O)c1nc[nH]c1C(=O)NC(c1ccccc1)c1ccccc1)C(=O)OC(C)(C)C
→ -4.6, i, 7, 3.0, -5%, nt, 16, 21, 3.3
Cc1ccc(CS(=O)(=O)CCC(=O)NCc2ccccn2)cc1
→ 5.2, nt, 8, nt, 0%, 0.7, nt, nt, nt
CC(C)CC(NC(=O)OCc1ccccc1)C(=O)NCC(=O)NCC(=O)OCc1ccccc1 (stereo not drawn)
→ nt, i, nt, -4.1, nt, nt, 14, 20, 0.9
C/C=C(\C)CN1CCc2cc(OC)c(OC)cc2C1
→ -3.2, nt, -1, nt, -7%, 0.7, nt, nt, nt
CCOc1ccccc1N(C)C(=O)C1CCN(S(=O)(=O)c2cccc3nonc23)CC1
→ -0.2, nt, -1, nt, 4%, 0.77, nt, nt, nt
O=C(COC(=O)c1cccc(-n2cnnn2)c1)c1ccc(F)cc1
→ -0.1, i, 1, -0.9, 0%, 0.69, 12, 1, -3.3
C[C@@H]1CN([C@H](C)CO)C(=O)Cc2cc(NC(=O)C3CCCCC3)ccc2O[C@H]1CN(C)C(=O)NC1CCCCC1
→ nt, i, nt, -0.9, nt, nt, 0, -2, -1.0
O=C(NCc1ccccc1)C(c1ccc(C(F)(F)F)cc1)n1c(=O)c(-c2cc3ccccc3[nH]2)nc2ccccc21 (stereo not drawn)
→ 3.4, i, nt, -50, nt, nt, 7, 6, 0.2
